# GCN5L2 inh: qHTS Assay for Inhibitors of GCN5L2. 0.21% of 390,000 active. GCN5L2 HAT assay, ThioGlo1 CoA-SH fluorescence. Potency, µM (highest dose often 58.9 µM), inactives show at the highest dose activity change, negative = inhibition, hits mostly inhibitors. AID 504327, 2011
# Target sequence (Q92830 whole entry, looked up): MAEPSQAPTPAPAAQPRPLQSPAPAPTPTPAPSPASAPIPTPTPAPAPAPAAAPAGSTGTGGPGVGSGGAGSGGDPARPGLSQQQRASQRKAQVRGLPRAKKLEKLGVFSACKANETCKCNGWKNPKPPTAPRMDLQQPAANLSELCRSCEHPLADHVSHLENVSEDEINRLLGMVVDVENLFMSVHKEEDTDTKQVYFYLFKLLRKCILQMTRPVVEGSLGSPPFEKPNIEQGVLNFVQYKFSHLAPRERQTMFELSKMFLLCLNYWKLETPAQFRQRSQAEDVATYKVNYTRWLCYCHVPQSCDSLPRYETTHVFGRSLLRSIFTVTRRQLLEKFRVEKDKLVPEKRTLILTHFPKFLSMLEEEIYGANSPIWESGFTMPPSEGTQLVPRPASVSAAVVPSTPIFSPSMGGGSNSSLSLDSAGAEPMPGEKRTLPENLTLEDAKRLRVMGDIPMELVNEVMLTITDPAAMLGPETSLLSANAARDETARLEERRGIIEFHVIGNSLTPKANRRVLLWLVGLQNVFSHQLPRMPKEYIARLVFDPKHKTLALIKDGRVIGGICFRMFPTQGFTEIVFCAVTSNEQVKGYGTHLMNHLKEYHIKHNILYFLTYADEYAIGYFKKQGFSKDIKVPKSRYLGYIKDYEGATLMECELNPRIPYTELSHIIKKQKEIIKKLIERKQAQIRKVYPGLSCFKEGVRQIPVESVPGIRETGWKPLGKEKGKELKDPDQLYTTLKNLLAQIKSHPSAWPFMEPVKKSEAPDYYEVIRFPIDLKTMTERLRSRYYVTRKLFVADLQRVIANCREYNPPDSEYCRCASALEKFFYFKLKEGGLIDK
#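 Fluorescence readout, Ex340nm/Em540nm: ThioGlo1 (50uM final) reacts with free CoA thiol released as 20nM GCN5L2 acetylates H3(1-25) peptide (75uM) using acetyl-CoA (70uM). Compound and enzyme sat 15 min beforehand; 20 min room-temperature reaction.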
# N370S GC mod: qHTS Assay for Inhibitors and Activators of N370S glucocerebrosidase as a Potential Chaperone Treatment of Gaucher Disease; Lysosomal acid glucosylceramidase (Homo sapiens), P04062; N370S GC spleen homogenate, 4MU-glucoside fluorescence; Potency, µM (titrated, usually from 59.4 µM), for inactives: at the top dose activity change, negative = inhibition, usual class: inhibitors; 0.092% of 330,000 active; AID 2101, 2009;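 also: 0% = full enzyme activity and -100% = no enzyme basal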
# Numbers without * were called inactive; ? = inconclusive; . = not tested or not shown; & = joins results of further samples. Calls follow the shape of the dose curve; as a rule, active = well fitted curve in the direction sought with a large enough effect; inconclusive = small, poorly fitted or top-dose-only effect, or another doubt; inactive = no such curve, though single readings can be large; an effect the other way counts as inactive or inconclusive. Unless noted, % is scaled to controls: 0 for no effect and ±100 for the full control effect; potency is read from the fitted curve at half-maximal effect. The list is partial, and most or all hits are left out here.
no.	molecule	GCN5L2 inh	N370S GC mod
1	Cn1c(NNC(=O)C(c2ccccc2)c2ccccc2)cc(=O)n(C)c1=O	-7.5%	-1.5%
2	COc1ccc(C2OCC3(CO2)SC(N)=NC3=O)cc1 (stereo not given)	5.5%	-0.9%
3	NC(=O)c1c(NC(=O)C2CC=CCC2C(=O)O)sc2c1CCCCC2 (stereo not given)	-22.7%	1.8%
4	COc1ccc(N2CCN(CCCNC(=O)c3ccc4nc(N5CCCCC5)sc4c3)CC2)cc1	-3.5%	.
5	CCCOc1ccccc1NC(=O)Nc1ccccc1Cl	-1.2%	-8.8%
6	Cc1ccccc1-c1nc2cc(N)ccc2o1	-9.2%	-16.2%
7	Cc1[nH]c2c(ccc3ccccc32)c1C1C(CCN)C1(C)C (stereo not given)	-0.2%	-22.5%
8	COc1ccccc1N(CC(=O)N/N=C/c1ccc(C(=O)O)cc1)S(=O)(=O)c1ccc(C)cc1	5.4%	-1.2%
9	COc1ccccc1N1CCN(/N=C/c2cc(OC)c(OC)c(OC)c2)CC1	-0.6%	3.3%
10	Cc1cccc(NS(=O)(=O)c2ccc(C(=O)NCC3CCCO3)cc2)c1C (stereo not given)	-0.7%	-11.2%
11	O=C(Cn1c(-c2cscn2)nc2ccccc21)Nc1cc(F)ccc1F	-8.9%	2.5%
12	COc1ccc2c(c1)-c1ccccc1S(=O)(=O)N2C	-16.9%	-12.3%
13	O=C(CC(=O)N/N=C\c1ccccc1[N+](=O)[O-])NCCc1ccccc1	-2.0%	-0.2%
14	O=S(=O)(c1ccc(F)cc1)N1CCN(c2nc(-c3ccc(F)cc3)cs2)CC1	4.4%	-24.2%
15	O=C(CSc1nccn1Cc1ccc(F)cc1)Nc1ccc(F)cc1F	-19.6%	?
16	CC(=O)Nc1cccc(NC(=O)c2ccco2)c1	-3.7%	-11.3%
17	Clc1ccccc1Cc1noc(CN2CCCCC2CCc2ccccn2)n1 (stereo not given)	-24.7%	-4.6%
18	COc1ccc(-c2cc(C(=O)N/N=C(\C)c3cccnc3)c3ccccc3n2)c(OC)c1	0.0%	0.1%
19	O=C1c2cccc3cc(Br)cc(c23)C(=O)N1Nc1ccccc1	-18.6%	-1.9%
20	COc1ccccc1C(=O)Nc1nc(-c2ccc(S(=O)(=O)N3CCOCC3)cc2)cs1	-5.3%	16.1%
21	C#CC(C)(CC)NC(=O)c1cc(OC)c(OC)c(OC)c1 (stereo not given)	3.7%	12.4%
22	COc1ccc(CNCCCO)cc1OC	2.4%	8.7%
23	CCSc1nnc(NC(=O)CSc2nccn2-c2cccc(C)c2C)s1	-9.3%	4.8%
24	Cc1ccc(-n2nnnc2SCC(N)=O)c(C)c1	-3.8%	0.2%
25	O=C(CN1CCN(c2ccccc2)CC1)Nc1ccc(F)cc1	-5.1%	-15.0%

# (next part)
no.	molecule	GCN5L2 inh	N370S GC mod
26	O=C(c1ccc(Cl)cc1)N1CCc2ccccc21	-1.2%	3.1%
27	COc1cc([N+](=O)[O-])ccc1NC(=O)COC(=O)c1c[nH]c(=O)[nH]c1=O	-5.0%	.
28	C=CCn1c(C(C)NC(=O)CC)nc2ccccc21 (stereo not given)	-0.6%	-3.0%
29	O=C(CCN1C(=O)C2C3C=CC(C3)C2C1=O)Nc1c(F)cc(F)cc1Br (stereo not given)	?	-0.1%
30	COc1ccccc1CNC(=O)COC(=O)c1cc([N+](=O)[O-])ccc1N1CCOCC1	-5.4%	-4.8%
31	CCOc1ccc(NC(C)c2cc(Cl)ccc2O)cc1 (stereo not given)	-5.4%	-5.0%
32	COC(=O)c1sc(NC(=O)/C=C/c2ccc(C)cc2)nc1C	-5.5%	5.5%
33	CNC(=O)n1ccc(C(=O)N2CCCCC2)n1	-6.3%	2.1%
34	O=S(=O)(Nc1cccc(-n2cnnn2)c1)c1ccccc1F	-3.8%	3.5%
35	O=C(Cn1c(NCCCO)nc2ccccc21)c1ccc(F)cc1	0.6%	-6.0%
36	Cn1c(=O)c2c(SCC(=O)Nc3ccccc3C(F)(F)F)nc(C3CCCC3)nc2n(C)c1=O	-8.4%	.
37	O=C(COc1ncnc2cc(Cl)ccc12)c1ccccc1	-0.1%	7.6%
38	COCCNC(=O)c1ccc(NC(C)=O)cc1	2.5%	4.2%
39	COCCCNC(=O)c1cc(S(=O)(=O)N2CCOCC2)ccc1SCc1cccc(OC)c1OC	-3.7%	0.8%
40	O=C(Nc1ccc(S(=O)(=O)N2CCOCC2)cc1)c1ccc([N+](=O)[O-])s1	-23.1%	-1.0%
41	CC(C)(C)OC(=O)N1C=CCC1CN1C(=O)COCC1=O (stereo not given)	.	3.1%
42	Cc1occc1C(=O)NC1CCCN(Cc2ccc(CC(C)C)cc2)C1 (stereo not given)	-3.0%	-10.5%
43	C=CCN(C(=O)c1csnn1)C(C(=O)NC1CCCC1)c1ccccc1F (stereo not given)	-0.6%	-1.0%
44	c1ccc(-c2csc(-n3cccn3)n2)cc1	-5.6%	-1.5%
45	CCc1ccc(-c2cc(C(=O)NN3CCOCC3)c3ccccc3n2)cc1	-0.9%	3.0%
46	COc1ccc2c(c1)C(=O)N(c1ccccc1OC)C(=O)C2(C)C	-0.6%	4.0%
47	COc1ccc(OC)c(NC(=O)CSc2nc3ccccc3c(=O)n2CCC(=O)NC2CCCCC2)c1	-1.7%	.
48	O=C(O)C1C2C=CC(C2)C1C(=O)OCc1ccccc1 (stereo not given)	-7.8%	-0.2%
49	COc1ccccc1C(=O)COC(=O)c1cc(=O)[nH]c2ccccc12	1.3%	1.8%
50	CCOc1ccc(CC(=O)NCCc2sc3nc(-c4ccc(OC)cc4)nn3c2C)cc1	-7.8%	.

# Carrying on:
no.	molecule	GCN5L2 inh	N370S GC mod
51	CC1(C)CC(=O)c2cc(OCC(=O)N3CCOCC3)ccc2O1	-8.1%	-3.2%
52	COc1ccccc1CNC(c1ccccc1)c1ccccc1	2.0%	-6.6%
53	O=C(NCc1ccco1)c1ccccc1-c1ccccc1	-1.9%	3.1%
54	N#C/C(=C1\CCCN1)c1ccc2ccccc2n1	-1.4%	-5.6%
55	CCn1cc(S(=O)(=O)N2CCc3ccccc3C2)cn1	-1.2%	-4.8%
56	CCCn1c2ccccc2c2nnc(SCC(=O)Nc3cc(C)on3)nc21	?	1.5%
57	C=CCn1c(C)cc(C2=NNC(=NC(C)(C)C)SC2)c1C	-1.0%	-6.8%
58	O=C(Nn1cc(C(=O)N2CCN(c3ccccc3F)CC2)c2ccccc2c1=O)c1cnccn1	0.7%	-7.6%
59	COc1ccc(/C=N/NC(=O)CC(=O)NC2CCCCC2)cc1	2.3%	0.6%
60	Cc1cc(C)nc(CCNC(=O)c2cc(COc3ccccc3)on2)n1	-14.6%	0.8%
61	CCn1cnc2c1c(=O)n(CC(=O)Nc1ccc3c(c1)OC(F)(F)O3)c(=O)n2Cc1ccccc1	-2.1%	13.7%
62	Cc1ccc(CN2CCN(/N=C/c3cccnc3)CC2)c(C)c1	-3.8%	-21.2%
63	CCOc1ccc(NC(=O)c2ccc(N3CC4CC(C3)c3cccc(=O)n3C4)c(NC(=O)c3ccncc3)c2)cc1 (stereo not given)	-8.4%	-20.8%
64	CC1(C)CC2(CCO1)N1CC3(C)CN2CC(C)(C1)C3O (stereo not given)	-2.6%	7.4%
65	CC(C)S(=O)(=O)c1csc(NC(=O)Nc2cccc([N+](=O)[O-])c2)c1Cl	-4.8%	-4.3%
66	CS(=O)(=O)c1ccc(C(O)C(CO)NC(=O)C(Cl)Cl)cc1 (stereo not given)	7.4%	-10.6%
67	O=C(O)CCNS(=O)(=O)c1ccc2c(c1)CCCC2	-11.4%	6.9%
68	CCOc1ccc(CCNC(=O)CCCn2nc(C)c3c(C)n(-c4ccccc4)nc3c2=O)cc1	0.2%	2.9%
69	Cc1cccc(OCC(=O)N(Cc2cccs2)C2CCS(=O)(=O)C2)c1 (stereo not given)	0.7%	3.0%
70	COc1ccccc1NC(=O)CSc1ccc(-c2ccc(-n3cccn3)cc2)nn1	-14.6%	1.2%
71	Cc1ccc(NC(=O)CSc2n[nH]c(-c3cccnc3)n2)c(Br)c1	-3.6%	-12.7%
72	Cc1csc(=O)n1CC(=O)Nc1nc2ccccc2s1	-0.8%	.
73	CSc1nc(C)c(CCOCc2ccc(F)cc2)c(=O)[nH]1	1.6%	-0.3%
74	CCOc1ccc(NC(=O)CC2C(=O)N(c3ccccc3)C(=O)N2CCc2sccc2C)cc1 (stereo not given)	-4.5%	.
75	CC(=O)c1cccc(NC(=O)N2CCCC2C(=O)Nc2cccc(C)c2C)c1 (stereo not given)	-0.5%	-1.5%

# (listing goes on)
no.	molecule	GCN5L2 inh	N370S GC mod
76	COC(=O)/C=C1/SC(=NC(=O)c2ccccc2)NC1=O	-10.9%	-6.4%
77	O=C1/C(=C\c2ccc([N+](=O)[O-])cc2)CCc2ccccc21	-2.1%	3.1%
78	Cc1occc1C(=O)N/N=C/c1c(O)ccc2ccccc12	-23.6%	-2.6%
79	O=C(c1ccccc1)N1CCN=C1SCc1ccc([N+](=O)[O-])cc1	-3.1%	3.4%
80	CCc1cccc(NC(=O)c2cc3c(=O)n(Cc4ccccc4)ccc3nc2C)c1	2.2%	.
81	CCS(=O)(=O)N1Cc2ccccc2CC1C(=O)NCCc1ccccc1 (stereo not given)	-4.8%	0.5%
82	COc1cccc(NC(=S)N(CCN(C)C)C(C)c2ccncc2)c1 (stereo not given)	3.6%	2.8%
83	Cc1cc(C)n2nc(-c3cccnc3)nc2n1	-1.0%	-1.0%
84	CC(NC(=O)NC1CCCCC1)C(c1cccs1)N1CCN(c2ccccc2)CC1 (stereo not given)	?	-6.6%
85	CCNC(=S)N1CCN(S(=O)(=O)c2cccc(C(F)(F)F)c2)CC1	1.8%	-3.2%
86	CCOC(=O)C1CCN(CCC(=O)Nc2ccc(Br)c(C)c2)CC1	?	-11.2%
87	COc1ccc(OC)c(S(=O)(=O)N2CCC(C(=O)N3CCCC3)CC2)c1	-5.3%	5.3%
88	Cc1cc(NC(=O)Cn2nc(C(F)(F)F)c3c2CCC3)n(-c2ccccc2)n1	1.5%	20.7%
89	CC(=O)Nc1ccc(NC(=O)C2CCCN(S(=O)(=O)c3ccc4c(c3)CCCC(=O)N4)C2)cc1 (stereo not given)	2.4%	.
90	O=C(O)CSc1nnc(COc2ccc(Br)cc2)n1-c1ccccc1	-3.7%	0.1%
91	CSCCC(NC(=O)c1ccccc1Cl)C(=O)N1CCCCCCC1 (stereo not given)	1.7%	.
92	COC(=O)c1cccc(C(=O)N2CCC(CO)(Cc3ccccc3Cl)CC2)c1	-3.4%	?
93	COC(=O)C(C(=O)OC)N1C(=O)CCC1=O	-0.3%	4.6%
94	Cc1ccc2nsnc2c1NC(=O)CCl	0.6%	-2.4%
95	Cc1ccc2c(c1)N(C(=O)CCC(=O)NCc1cccnc1)CC(C)O2 (stereo not given)	-11.7%	-0.4%
96	Cc1ccc(/C=C2/NC(=O)N(Cc3ccccc3)C2=O)o1	?	2.5%
97	COc1ccc(S(=O)(=O)Cc2ccc(C(=O)N3CCN(c4cc(C)ccc4C)CC3)o2)cc1	-10.7%&-10.4%	7.4%
98	CCCCS(=O)(=O)NC1=NCN(CC)CN1	-1.3%	1.1%
99	COC(=O)c1cc(S(=O)(=O)NCC2CCN(Cc3cccc(F)c3)CC2)cn1C	0.8%&11.9%	?
100	CC(=O)Nc1sc2c(c1C(c1cccc(Cl)c1)N1CCN(CCO)CC1)CCCC2 (stereo not given)	-9.6%	17.8µM*

# More results follow:
no.	molecule	GCN5L2 inh	N370S GC mod
101	COc1cc(-c2nnc(SCCOc3ccccc3)o2)cc(OC)c1OC	-0.4%	.
102	Cc1cc(C)n2c(SCCC(C)C)nnc2n1	-1.0%	12.2%
103	CC1C(=O)Nc2ccccc2N1C(=O)c1ccc(F)cc1F (stereo not given)	9.4%	-1.9%
104	CCOC(=O)CSc1nc2cc3c(cc2c(=O)n1CCCCCC(=O)NCc1ccc(OC)cc1)OCO3	-4.0%	.
105	COc1cc(NC(=O)c2ccccc2-c2ccccc2)cc(OC)c1	-2.5%	-17.3%
106	COc1ccc(C(=O)OCC(=O)N2CCC(C)CC2)cc1S(=O)(=O)N1CCOCC1	-6.8%	0.9%
107	CCOC(=O)N1CCC(NC(=O)CSCc2nc(-c3cccc(OC)c3)oc2C)CC1	-1.4%	7.6%
108	CCOCCCNC(=O)C1CCN(C(=O)Nc2ccc(Cl)cc2)CC1	-7.0%	3.9%
109	CC(OC(=O)c1ccc(NC(=O)CC#N)cc1)C(=O)NC(c1ccccc1)c1ccccc1 (stereo not given)	-13.2%	.
110	COc1ccc2c(c1)c(=O)oc1cc(OC(C(=O)O)c3ccccc3)ccc12 (stereo not given)	-11.5%	?
111	C=C(C)C1CC=C(C)/C(=N/NC(=O)C2CC2c2ccccc2)C1 (stereo not given)	-5.2%	22.7%
112	Cc1cccc(NC(=O)CSc2nnc(CN3CCOCC3)n2C)c1C	0.1%	-21.4%
113	COCCN1C(=O)/C(=C2/C(=O)N(CC(=O)Nc3ccccc3Cl)c3ccccc32)SC1=S	1.9%	2.9%

# Among those listed so far, these have a CF3 group:
no.	molecule	GCN5L2 inh	N370S GC mod
36	Cn1c(=O)c2c(SCC(=O)Nc3ccccc3C(F)(F)F)nc(C3CCCC3)nc2n(C)c1=O	-8.4%	.
85	CCNC(=S)N1CCN(S(=O)(=O)c2cccc(C(F)(F)F)c2)CC1	1.8%	-3.2%
88	Cc1cc(NC(=O)Cn2nc(C(F)(F)F)c3c2CCC3)n(-c2ccccc2)n1	1.5%	20.7%
